HPGD inh: HPGD (human) dehydrogenase inhibition. purified HPGD, NADH fluorescence kinetic, PGE2 substrate. AID 894. Potency, µM, without a hit: at the top dose activity change, negative = inhibition, actives largely listed as inhibitors. hit rate 4.3% among 150,000. P15428; active = well fitted inhibition curve with a large enough effect (not every such curve was filed as active); inconclusive = small, poorly fitted or top-dose-only effect, or another doubt; inactive = no such curve, though single readings can be large or run the other way;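 also: top concentration of the series not given in the record; plate controls included wells without enzyme; inactives centre near -10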
Target sequence (P15428 whole entry, looked up): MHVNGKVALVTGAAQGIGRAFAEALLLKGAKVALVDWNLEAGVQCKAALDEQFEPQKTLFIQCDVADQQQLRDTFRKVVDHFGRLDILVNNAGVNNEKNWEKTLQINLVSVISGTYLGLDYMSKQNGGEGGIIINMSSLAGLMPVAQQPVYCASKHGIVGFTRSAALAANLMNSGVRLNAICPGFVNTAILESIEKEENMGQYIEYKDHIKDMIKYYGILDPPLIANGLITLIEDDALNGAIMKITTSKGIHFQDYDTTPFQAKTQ
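20 nM HPGD preincubated 15 min at room temperature with compound in 50 mM Tris-HCl pH 8, 0.01% Tween 20. Started with 1 mM NAD+ and 30 uM prostaglandin E2; NADH fluorescence (360/450 nm) read 5 times over 30-s intervals, last minus first.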
Numbers without * were called inactive; & = joins results of further samples. % is scaled to controls: 0 for no effect and ±100 for the full control effect; potency is read from the fitted curve at half-maximal effect. A portion of the library; the hit share may differ from the screen's.

SMILES	HPGD inh
CCC1C(=O)OCC1Cc1cncn1C (stereo not given)	3%&-9%
